Source: PubChem
Ecoli rRNA inh – reduced GFP signal of wild-type E. coli, primary screen, bacterial rRNA inhibitor project, GFP/RFP fluorescence, OD600, single point. GFP signal change (wild-type ribosome), % (concentration not given with the values). E. coli WT GFP vs humanized-ribosome RFP mutants, 24 h; active compounds read low; DMSO median 0, no signal -100. 1.6% of 350,000 active;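 active = significant combined selectivity score with lowered wild-type GFP, culture density cut under 30%, mutant RFP and density less affected; inactive = any of these conditions unmet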; also: one replicate is shown; some compounds called inactive have numbers as strong as hits
MLL AF4-AF9 inh – inhibitors of AF4 peptide binding to AF9, primary screen, biochemical, AlphaScreen, biotin-AF4 peptide, FLAG-AF9, single point; AID 651704, 2012; 0.47% of 350,000 active; inhibition, % at 10 µM; Protein AF-9 (Homo sapiens), P42568;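 active = every replicate reaching a set inhibition limit, whatever the replicate mean, cut at about 25% in these data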;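 also: 0% = plate neutral control median and 100% = total signal loss; the record names both 10 and 1 µM as test concentration; the first replicate is given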
Target sequence (P42568 whole entry, looked up): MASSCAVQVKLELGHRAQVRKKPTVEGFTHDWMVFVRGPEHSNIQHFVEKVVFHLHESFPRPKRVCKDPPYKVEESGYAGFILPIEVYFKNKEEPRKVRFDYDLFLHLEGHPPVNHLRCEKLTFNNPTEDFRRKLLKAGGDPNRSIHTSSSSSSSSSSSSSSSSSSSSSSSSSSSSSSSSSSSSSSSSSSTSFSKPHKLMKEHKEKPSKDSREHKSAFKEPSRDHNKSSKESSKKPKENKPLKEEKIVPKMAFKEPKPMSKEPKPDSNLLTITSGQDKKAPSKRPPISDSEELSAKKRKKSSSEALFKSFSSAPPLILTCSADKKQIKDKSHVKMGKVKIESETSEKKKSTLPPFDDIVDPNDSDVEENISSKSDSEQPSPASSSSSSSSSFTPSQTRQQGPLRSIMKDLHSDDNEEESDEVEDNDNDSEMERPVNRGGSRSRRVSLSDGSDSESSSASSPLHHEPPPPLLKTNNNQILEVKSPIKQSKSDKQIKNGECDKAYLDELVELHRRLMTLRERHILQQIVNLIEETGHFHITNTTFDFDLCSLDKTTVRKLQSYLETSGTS
Ecoli rRNA inh OD600 – further read-out of Ecoli rRNA inh, marked with its call; OD600 change, %; measured here: OD600 growth;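 optical density of the mix in the first replicate; 0 = DMSO median and -100 = no signal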
Ecoli rRNA inh RFP – further read-out of Ecoli rRNA inh, marked with its call; RFP signal change, %; measured here: RFP humanized mutant strains;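 first replicate; 0 = DMSO median and -100 = no signal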
The depositor's hits bear a star. These rows are one share of the data, so the mix of outcomes need not match the whole.

Letter code: A = Ecoli rRNA inh; B = Ecoli rRNA inh OD600; C = Ecoli rRNA inh RFP; D = MLL AF4-AF9 inh
O=C(Nc1ccc(Oc2ccccc2)nc1)[C@H]1O[C@@H](n2ccc(=O)[nH]c2=O)[C@H](O)[C@@H]1O
  A: -1; B: 9; C: 0.9; D: -3.7

COc1ccc(S(=O)(=O)Nc2ccc3c(c2)C(=O)N([C@H](C)CO)C[C@H](C)[C@H](CN(C)S(=O)(=O)c2ccc(C)cc2)OCCCC[C@H](C)O3)cc1
  A: 1; B: 3; C: -0.2; D: -0.9

CCC(=O)Nc1ccc2c(c1)C(=O)N(C)[C@@H]1CC[C@H](CC(=O)NC3Cc4ccccc4C3)O[C@@H]1CO2
  A: -3; B: -6; C: 0.1; D: -8.3

COc1ccc2c3c(n(C)c2c1)[C@H](CO)N(Cc1ccncc1)CC31CCN(C(=O)C2CCC2)CC1
  A: 2; B: -6; C: 2.6; D: -3.9

CCS(=O)(=O)N(C)C[C@@H]1N[C@H](CO)[C@@H]1c1ccc(C2=CCCCC2)cc1
  A: 0; B: 4; C: 3.1; D: -3.0

COc1ccc(NC(=O)Nc2ccc3c(c2)[C@@H]2C[C@H](CC(=O)NC4CCCCC4)O[C@H](CO)[C@@H]2O3)cc1
  A: 4; B: 12; C: 0.0; D: -4.6

O=C(NCC[C@H]1CC[C@H](NC(=O)C2CCOCC2)[C@H](CO)O1)c1cc(Cl)cc(Cl)c1
  A: 3; B: 12; C: 0.6; D: -2.3

CC1=C(C(=O)N2CCOCC2)CC(CC(=O)NCC2CCCCC2)C(=O)N1Cc1ccc(C(C)(C)C)cc1 (configuration not stated)
  A: -2; B: 5; C: -1.2; D: -0.8

COC(=O)[C@@]1(Cc2ccc(F)cc2)[C@H]2c3cc(C(=O)N4CCCC4)n(Cc4cc(F)cc5c4OCOC5)c3C[C@H]2CN1C(=O)c1ccccc1
  A: 4; B: 5; C: -0.1; D: 2.3

CCOc1cc(OCC)cc(C(=O)N2CCC[C@@H]2C(=O)N2CCC[C@@H]2C(=O)NCc2cccc(OC)c2)c1
  A: 12; B: 16; C: 13; D: -7.0

C[C@@H]1CN([C@H](C)CO)C(=O)c2ccccc2-c2ccccc2CO[C@H]1CN(C)C(=O)[C@H]1CCCN1C
  A: 2; B: 2; C: 0.6; D: -0.8

CNC[C@@H]1Oc2ccc(NC(=O)Nc3cccc4ccccc34)cc2CC(=O)N([C@H](C)CO)C[C@@H]1C
  A: 2; B: 5; C: -0.9; D: 0.5

C[C@H]1CCCCO[C@@H](CN(C)C(=O)NC2CCCCC2)[C@@H](C)CN([C@@H](C)CO)C(=O)c2cc(NS(=O)(=O)c3ccc(Cl)cc3)ccc2O1
  A: 3; B: -16; C: -0.6; D: -3.3

CC(=O)N(C)C[C@@H]1Oc2cc(C#CCC(C)C)ccc2S(=O)(=O)N([C@H](C)CO)C[C@@H]1C
  A: -3; B: -8; C: -5.9; D: 1.3

O=C(CC1CC1)N1CC2(C1)[C@@H](c1ccccc1)[C@@H](CO)N2C(=O)c1ccccn1
  A: 6; B: 15; C: -0.4; D: -1.7

CC(C)NC(=O)N[C@H]1C=C[C@@H](CC(=O)NCCN2CCCC2)O[C@H]1CO
  A: 2; B: 1; C: -0.9; D: -1.8

Cc1ccc(S(=O)(=O)Nc2ccc3c(c2)C(=O)N([C@H](C)CO)C[C@@H](C)[C@@H](CN(C)S(C)(=O)=O)O3)cc1
  A: 2; B: 2; C: -1.3; D: -5.4

COc1ccc(NC(=O)N(C)C[C@@H]2Oc3ccc(NS(=O)(=O)c4cccs4)cc3C(=O)N([C@@H](C)CO)C[C@@H]2C)cc1
  A: -3; B: 8; C: -1.7; D: -0.7

C[C@H]1CN([C@@H](C)CO)S(=O)(=O)c2ccc(C#CC3CC3)cc2O[C@H]1CN(C)C(=O)C1CC1
  A: 0; B: 1; C: 0.9; D: 2.6

Cc1ccc2c(c1)[C@H]1[C@H](CO2)[C@H](c2ccccc2)[C@]2(C)C(=O)N(C)CC(=O)N12
  A: 0; B: -3; C: 1.8; D: 0.1

COC(=O)[C@@H]1[C@@H](CO)[C@@H]2Cn3c(ccc(-c4cccc(F)c4)c3=O)[C@@H]2N1CC1CC1
  A: 0; B: 1; C: -6.1; D: -1.7

C[C@@H]1CN([C@H](C)CO)S(=O)(=O)c2ccc(-c3ccncc3)cc2O[C@@H]1CN(C)C(=O)c1cccc(F)c1
  A: -9; B: -18; C: -0.9; D: 2.8

CNC[C@H]1Oc2ncc(C#CC3(O)CCCC3)cc2C(=O)N([C@H](C)CO)C[C@@H]1C
  A: 5; B: 6; C: -0.8; D: 2.5

CN(C)C(=O)C[C@@H]1C[C@@H]2c3cc(NS(=O)(=O)c4ccccc4)ccc3O[C@@H]2[C@@H](CO)O1
  A: 2; B: 1; C: -2.0; D: 0.1

CN1C[C@H](O)COC[C@H]2O[C@H](CC(=O)N3CCN(c4ccccc4)CC3)CC[C@@H]21
  A: 5; B: 0; C: -2.9; D: -1.1

O=C(O)C[C@H]1CC[C@H](NC(=O)c2ccncc2)[C@H](CO)O1
  A: -2; B: 1; C: 1.7; D: -2.7

O=C(C[C@H]1CC[C@H]2[C@@H](COC[C@@H](O)CN2CCc2ccccc2)O1)NCc1ccc(F)cc1
  A: -2; B: -14; C: 3.8; D: -0.2

CO[C@H]1CN(C)C(=O)c2ccc(NC(=O)Nc3ccccc3F)cc2OC[C@@H](C)N(CC2CC2)C[C@H]1C
  A: 1; B: 8; C: 3.7; D: -1.1

COCC(=O)Nc1ccc2c(c1)OC[C@@H](C)N(Cc1cccc(F)c1)C[C@@H](C)[C@@H](OC)CN(C)C2=O
  A: 2; B: -2; C: -2.2; D: 4.1

C[C@@H]1CN([C@H](C)CO)C(=O)c2cc(C3=CCCCC3)cnc2O[C@H]1CN(C)Cc1ccc(C(=O)O)cc1
  A: -1; B: 8; C: -4.5; D: -3.4

Three of the entries above in order of the Ecoli rRNA inh RFP value, rising:
Letter code: A = Ecoli rRNA inh; B = Ecoli rRNA inh OD600; C = Ecoli rRNA inh RFP; D = MLL AF4-AF9 inh
CN1C[C@H](O)COC[C@H]2O[C@H](CC(=O)N3CCN(c4ccccc4)CC3)CC[C@@H]21
  A: 5; B: 0; C: -2.9; D: -1.1

COCC(=O)Nc1ccc2c(c1)OC[C@@H](C)N(Cc1cccc(F)c1)C[C@@H](C)[C@@H](OC)CN(C)C2=O
  A: 2; B: -2; C: -2.2; D: 4.1

O=C(C[C@H]1CC[C@H]2[C@@H](COC[C@@H](O)CN2CCc2ccccc2)O1)NCc1ccc(F)cc1
  A: -2; B: -14; C: 3.8; D: -0.2

Next results:
Letter code: A = Ecoli rRNA inh; B = Ecoli rRNA inh OD600; C = Ecoli rRNA inh RFP; D = MLL AF4-AF9 inh
O=C(C[C@@H]1CC[C@@H]2[C@H](COC[C@@H](O)CN2S(=O)(=O)c2ccc(Cl)cc2)O1)NCCN1CCCC1
  A: 4; B: 7; C: -4.1; D: -5.8

CO[C@H]1CN(C)C(=O)c2ccc(NC(=O)C3CCCC3)cc2OC[C@@H](C)N(C(=O)CC2CC2)C[C@@H]1C
  A: -4; B: -2; C: 0.0; D: -10

Cc1noc(C)c1NC(=O)N(C)C[C@@H]1Oc2c(NS(=O)(=O)c3ccc(F)cc3)cccc2C(=O)N([C@@H](C)CO)C[C@H]1C
  A: 5; B: 8; C: -0.7; D: -0.9

C[C@H]1CN([C@@H](C)CO)S(=O)(=O)c2ccc(-c3cccc(C#N)c3)cc2O[C@H]1CN(C)C(=O)c1ccncc1
  A: -4; B: -1; C: 3.2; D: -3.1

C[C@@H]1CN([C@@H](C)CO)C(=O)c2cc(C3=CCCC3)cnc2O[C@@H]1CN(C)C
  A: 5; B: 2; C: 0.3; D: -1.4

COc1ccc2c3c([nH]c2c1)[C@@H](CO)N(C(=O)c1cccnc1)CC31CN(Cc2ccccc2)C1
  A: 2; B: 6; C: 1.8; D: 13

CC(=O)N(C[C@H]1N[C@H](CO)[C@H]1c1ccc(-c2ccc(F)cc2)cc1)C(C)C
  A: -1; B: -3; C: 1.6; D: 1.5

C[C@H](CO)N1C[C@H](C)[C@H](CN(C)S(C)(=O)=O)OCCCC[C@H](C)Oc2ccc(N(C)C)cc2C1=O
  A: 1; B: 3; C: 1.0; D: -1.0

CN(C)CCCN1C(=O)C(O)=C(C(=O)c2cc3ccccc3o2)C1c1ccccn1 (configuration not stated)
  A: 7; B: 9; C: -1.7; D: 4.2

COCC(=O)N1CC2(CN(C(=O)CN3CCOCC3)C2)c2c([nH]c3cc(OC)ccc23)[C@H]1CO
  A: 3; B: -1; C: 0.2; D: 2.2

COc1ccc(C(=O)Nc2ccc3c(c2)OC[C@@H](C)NC[C@H](C)[C@@H](OC)CN(C)C3=O)cc1
  A: -4; B: -1; C: -0.6; D: -1.6

O=C(c1cnccn1)N1CC(=O)N2[C@H](CO)[C@H](c3ccc(C#CC4CCCCC4)cc3)[C@H]2C1
  A: 0; B: -8; C: -0.1; D: 1.9

CCS(=O)(=O)Nc1ccc2c(c1)C(=O)N(C)C[C@@H](OC)[C@@H](C)CN(Cc1ccccn1)[C@@H](C)CO2
  A: 0; B: 0; C: -1.1; D: -2.0

COc1cccc(NC(=O)N[C@H]2CC[C@@H](CC(=O)NCc3ccncn3)O[C@@H]2CO)c1
  A: 1; B: 0; C: 1.0; D: 4.4

O=C(NCc1ccccc1)[C@@H]1[C@@H](CO)[C@@H]2Cn3c(cccc3=O)[C@H]1N2C(=O)CC1CC1
  A: 0; B: 6; C: -0.7; D: -1.4

O=C(CC[C@H]1O[C@@H](n2cnc3c(NC(=O)c4ccccc4)ncnc32)[C@H](O)[C@@H]1O)NCCCN1CCOCC1
  A: 22; B: 10; C: 0.1; D: -1.4

Cc1ccc(S(=O)(=O)NCC[C@@H]2CC[C@@H](NS(=O)(=O)c3ccccc3Cl)[C@@H](CO)O2)cc1
  A: -1; B: -6; C: 4.2; D: 0.3

CC(=O)Nc1ccc(-c2ccnc3c2CC(C(=O)NCc2ccco2)O3)cc1 (configuration not stated)
  A: 3; B: -3; C: 5.7; D: 0.9

CCOC(=O)C1=C(C(=O)OCC)C2N(Cc3ccc(C#N)cc3)c3ccccc3[C@@]23C[C@@H](C(=O)OC)N(S(=O)(=O)c2ccc(C)cc2)C3=N1 (some centres not stated)
  A: 7; B: 17; C: 1.2; D: -5.7

Cn1cnc(S(=O)(=O)N[C@H]2CC[C@H](CC(=O)N3CCN(c4ccccc4)CC3)O[C@H]2CO)c1
  A: -2; B: 5; C: 0.9; D: -1.5

COCC(=O)N(C)C[C@@H]1Oc2ncc(/C=C/c3ccccc3)cc2C(=O)N([C@H](C)CO)C[C@H]1C
  A: -4; B: 2; C: -2.2; D: -1.2

Cc1ccc(-c2cnc(C(O)c3c(C)cccc3C)[nH]2)cc1 (configuration not stated)
  A: 10; B: 10; C: 3.8; D: 5.3

COc1cccc(-c2ccc([C@H]3[C@@H](C#N)N(C(=O)Cc4ccccc4)[C@@H]3CO)cc2)c1
  A: -38; B: -60; C: -2.8; D: 0.0

O=C(C[C@@H]1C[C@H]2c3cc(NC(=O)C4CCC4)ccc3O[C@H]2[C@H](CO)O1)NCc1cccnc1
  A: 0; B: -1; C: -1.6; D: -12

COc1cccc(-c2cnc3c(c2)C(=O)N([C@@H](C)CO)C[C@H](C)[C@@H](CN(C)C(=O)CC2CC2)O3)c1
  A: -5; B: -4; C: -0.6; D: -1.4

Cc1ccc(S(=O)(=O)Nc2ccc3c(c2)C(=O)N([C@@H](C)CO)C[C@@H](C)[C@@H](CN(C)C(=O)C2CCCCC2)OCCCC[C@@H](C)O3)cc1
  A: -4; B: -10; C: 2.8; D: -0.7

COCC(=O)Nc1ccc2c(c1)C(=O)N(C)C[C@H](OC)[C@@H](C)CN(Cc1ccccc1OC)[C@H](C)CO2
  A: -1; B: 3; C: 0.5; D: 2.8

C[C@H](NC(=O)C[C@H]1CC[C@@H](NC(=O)Nc2ccc3c(c2)OCO3)[C@@H](CO)O1)c1ccccc1
  A: -1; B: 4; C: -1.8; D: 0.7

Cc1nn(-c2ccccc2)c(-c2ccccc2[N+](=O)[O-])c1CC#N
  A: 6; B: -1; C: 1.2; D: 1.7

COC(=O)[C@H](Cc1ccccc1)NC(=O)/C=C/[C@H]1O[C@@H](n2cc(C)c(=O)[nH]c2=O)C[C@@H]1O
  A: 2; B: 5; C: 0.7; D: -5.0

C[C@@H](O)C#Cc1cnc2c(c1)C(=O)N([C@@H](C)CO)C[C@H](C)[C@@H](CN(C)Cc1cccc(C(=O)O)c1)O2
  A: 3; B: 1; C: -1.9; D: -7.9

Cc1noc(C)c1S(=O)(=O)N(C)C[C@H]1OCCCC[C@H](C)Oc2ccc(NC(=O)Nc3ccccc3)cc2C(=O)N([C@@H](C)CO)C[C@@H]1C
  A: -1; B: -2; C: -0.7; D: 6.7
